Sfp inh – Sfp phosphopantetheinyl transferase inhibition; Q9F4F7; Biochemical Sfp PPTase activity, qHTS; Potency, µM, without a hit: max response, negative = inhibition, hits mostly inhibitors; hit rate 3.5% among 310,000; active = well fitted inhibition curve with a large enough effect; inconclusive = small, poorly fitted or top-dose-only effect, or another doubt; inactive = no such curve, though single readings can be large or run the other way;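 note: the enzyme is Sfp with the accession as filed and its product quenches rhodamine fluorescence; potency is the fitted concentration of half-maximal effect; 0% = enzyme reaction without inhibitor and -100% = no enzyme wells; top concentration of the series not given in the record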
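Fluorescence-quenching assay with 15 nM Sfp, 5 uM rhodamine-CoA and 12.5 uM BHQ-2-labelled ybbR peptide in pH 7.6 Hepes/MgCl2 buffer. Enzyme was pre-incubated with compound for 15 min at room temperature. Rate was taken from the 30-min fluorescence change (525/598 nm).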
gsp ag – gsp mutant agonism; hit rate 0.13% among 340,000; gsp mutant cells, cAMP HTRF, 30 min; control for the full effect not named in the record; Potency, µM (doses to about 76.9 µM), inactives show top-dose activation (cAMP increase), most hits filed as activators; active = well fitted activation curve with a large enough effect; inconclusive = small, poorly fitted or top-dose-only effect, or another doubt; inactive = no such curve, though single readings can be large or run the other way; cell line not stated here;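 note: phosphodiesterase inhibitor Ro 20-1724 added with compounds to block cAMP breakdown; potency is the fitted concentration of half-maximal effect; nearly all actives have a fitted effect of over 60% in size; about a fifth of the inactives were tested at one dose only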
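Cells in DMEM/10% FBS with G418 were pretreated with compounds in DMSO plus […] (300 uM stock) for 30 min at 37C. cAMP was measured by HTRF (cAMP-d2 plus anti-cAMP antibody-K) after 30 min at room temperature.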
ClpP mod – qHTS Assay for Activators of ClpP. ATP-dependent Clp protease proteolytic subunit (Bacillus subtilis (strain 168)), P80244. purified B. subtilis ClpP, FRET peptide cleavage, 20 min. Potency, µM (highest dose often 57.5 µM), inactives show top-dose activity change, negative = active. hit rate 1.9% among 340,000; active = well fitted falling curve with a large enough effect; inconclusive = small, poorly fitted or top-dose-only effect; inactive = no such curve, though single readings can be large or run the other way; note: potency is the fitted concentration of half-maximal effect; the source files actives as falling curves though it sought activators and does not explain the sign; nearly all actives have a fitted effect of over 65% in size; many hits overshoot -100%
Target sequence (P80244 whole entry, looked up): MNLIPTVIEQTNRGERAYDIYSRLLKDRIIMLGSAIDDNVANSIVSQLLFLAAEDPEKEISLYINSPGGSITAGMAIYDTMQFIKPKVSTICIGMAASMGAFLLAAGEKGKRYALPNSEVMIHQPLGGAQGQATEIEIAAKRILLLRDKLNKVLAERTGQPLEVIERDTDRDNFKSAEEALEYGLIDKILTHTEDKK
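FRET quenching reversal measured ClpP activation: 10 microg/mL B. subtilis ClpP at pH 8 with the FRET-FV decapeptide, read at 430 nm after 320 nm excitation. The 20-min minus 0-min signal was scaled between DMSO/no-enzyme wells and ADEP (5.8 microM final).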
CtBP-E1A blk – CtBP/E1A binding inhibition. AID 651724. hit rate 0.49% among 340,000. AlphaScreen GST-E1A/His-CtBP binding, 1536-well; hits give low values; control for the full effect not named in the record. activity change, % (test concentration not listed); in the data active means activity change below about -65%; inconclusive means about -30% to -65%; inactive means above about -30%; note: % is set by controls: 0 for no effect and ±100 for the full control effect; compound concentration not given in the record
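Homogeneous bead-based format: GST-tagged E1A captured on glutathione donor beads, His-tagged CtBP on nickel acceptor beads; compounds precede bead addition by 2 h at 37 °C.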
gsp antag – antagonists of gsp mutant (McCune-Albright syndrome); gsp-mutant cells, cAMP HTRF, 30 min; control for the full effect not named in the record; Potency, µM (series often up to 76.9 µM), without a hit: at the highest dose activity change, negative = inhibition, hits mostly inhibitors; hit rate 0.4% among 340,000; active = falling curve of any shape with a large fitted effect; inconclusive = falling curve, mostly with a smaller effect; inactive = flat or rising curve; cell line not stated here;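 note: intracellular cAMP measured with PDE inhibitor Ro 20-1724 present during compound exposure; potency is the fitted concentration of half-maximal effect; % is set by controls: 0 for no effect and ±100 for the full control effect; nearly all actives have a fitted effect of over 65% in size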
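HTRF cAMP measurement after 30 min RT detection following 30 min, 37C compound treatment alongside […] (added as 300 uM solution) in G418-selected cells seeded at 2000/well and grown 16–24 h.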
TRPV1 potentiator – potentiators of human vanilloid receptor 1 (TRPV1) | TRPV1-expressing cells, Fluo-8 calcium influx, capsaicin EC20 potentiation; host cell line not named in the record; control for the full effect not named in the record | potentiation, % at 8.33 µM | AID 540277 | hit rate 0.02% among 320,000 | Q8NER1; active means potentiation above 80%; inconclusive means 30% to 80%; inactive means below 30%; note: 0% is about no effect
Target sequence (Q8NER1 whole entry, looked up): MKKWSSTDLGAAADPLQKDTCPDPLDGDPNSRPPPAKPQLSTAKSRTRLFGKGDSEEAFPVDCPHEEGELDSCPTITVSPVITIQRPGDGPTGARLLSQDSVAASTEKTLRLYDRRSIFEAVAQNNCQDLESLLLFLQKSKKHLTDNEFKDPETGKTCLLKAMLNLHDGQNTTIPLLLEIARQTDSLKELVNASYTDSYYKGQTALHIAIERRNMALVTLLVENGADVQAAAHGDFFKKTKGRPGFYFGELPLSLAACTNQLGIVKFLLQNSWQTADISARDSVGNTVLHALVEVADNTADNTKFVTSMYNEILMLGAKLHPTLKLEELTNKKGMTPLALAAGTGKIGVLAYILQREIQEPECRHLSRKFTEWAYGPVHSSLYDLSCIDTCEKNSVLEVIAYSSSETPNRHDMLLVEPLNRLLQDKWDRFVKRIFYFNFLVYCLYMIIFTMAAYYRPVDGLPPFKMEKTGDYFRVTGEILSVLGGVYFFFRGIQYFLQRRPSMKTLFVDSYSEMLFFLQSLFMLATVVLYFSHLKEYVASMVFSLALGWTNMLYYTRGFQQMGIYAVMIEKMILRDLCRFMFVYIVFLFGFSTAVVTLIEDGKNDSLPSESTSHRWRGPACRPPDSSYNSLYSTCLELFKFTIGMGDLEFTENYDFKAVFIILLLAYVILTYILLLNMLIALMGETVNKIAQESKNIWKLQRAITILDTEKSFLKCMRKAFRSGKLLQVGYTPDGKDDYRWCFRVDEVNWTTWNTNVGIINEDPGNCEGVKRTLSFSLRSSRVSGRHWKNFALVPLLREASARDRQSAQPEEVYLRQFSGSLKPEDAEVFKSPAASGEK
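Cells expressing TRPV1 were dye-loaded with Fluo-8 and read kinetically: 10 s baseline, 3 min after compound (agonist portion), then 2 min after EC20 capsaicin (allosteric enhancer portion). Calcium-bound dye fluorescence at 480/520 nm.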
Menin MLL FP FL – displaces fluorescein MLL peptide from human menin | Fluorescence polarization, fluorescein-MLL peptide displacement from menin | FP activity change, % at 61.4 µM | 290,000 tested, under 10 active; inconclusive = falling polarisation curve, or a change in total fluorescence; inactive = total fluorescence flat and polarisation flat or rising; no compound was filed as active; the % refers to the polarisation; negative = inhibition;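 note: % of control where 0% means no effect; inhibitors lower the polarisation; unlabelled MLL peptide was the positive control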
* hit, by the source's call; ? = inconclusive; / = no result given; [ ] = remark or other dose.

molecule	Sfp inh	gsp ag	ClpP mod	CtBP-E1A blk	gsp antag	TRPV1 potentiator	Menin MLL FP FL
Cc1nnc(SCC(=O)Nc2ccc(OC(F)F)c(Cl)c2)n(N)c1=O	/	-1%	0.8%	7	2%	/	/
O=C(c1cc(-c2ccc(Cl)c(Cl)c2)on1)N1CCCC1	18%	/	/	/	/	-19	3.2
Cc1ccc(/C=N/n2c(C)nnc2C)s1	7%	-20%	1.1%	0	4%	-7	1.6
CC1(C)Cc2c(cnn2-c2ccc(F)cc2)C(NC(=O)CCCN2CCCCC2=O)C1 (stereo not given)	8%	-52%[inhibitor]	-1.3%	8	-6%	20	/
CCC1CCC2(CC1)NC(CO)(CO)CO2 (stereo not given)	15%	-13%	0.9%	9	2%	-21	-0.8
CCOc1ccc(CC(=O)NNC(=S)NC2CCCCC2)cc1OCC	28%	0%	-9.7%	-5	5%	?	2.8
CC(C)CC(=O)Nc1c2c(nn1-c1cccc(Cl)c1)CS(=O)(=O)C2	11%	13%	-1.8%	-5	7%	-21	6.1
CCC1Oc2ccc(C)cc2N(CC(=O)NCc2ccco2)C1=O (stereo not given)	?	-9%	-0.5%	-5	7%	-25	3.9
O=C(Nc1ccccn1)c1ccc2c(c1)S(=O)(=O)c1ccccc1C2=O	5%	/	1.2%	4	4%	-10	1.1
COCCN(Cc1cc2cc3c(cc2[nH]c1=O)OCO3)C(=O)c1cccs1	8%	/	/	/	/	-1	-0.2
O=C(N/N=C/c1cccc2ccccc12)c1n[nH]c2c1CCCC2	23%	-1%	/	3	4%	4	-0.3
Cc1ccc(NC(=O)Nc2ccc(C(=O)N3CCOCC3)cc2)cc1	19%	-1%	-1.5%	-5	-3%	-13	0.0
Cc1cc(N2C(=O)CC(N3CCN(C(c4ccccc4)c4ccccc4)CC3)C2=O)no1 (stereo not given)	0%	4%	2.1%	-3	-10%	-11	0.9
CCOc1ccc(N(CC(=O)Nc2ccc3c(c2)OCCO3)S(=O)(=O)c2c(C)noc2C)cc1	18%	?	2.7%	1	-25%	/	1.8
COc1cccc(Nc2ncnc3sccc23)c1	-11%	?	/	4	-17%	-12	11
CCCNC(=O)c1cc(S(=O)(=O)N2CCc3ccccc32)ccc1F	8%	-32%	-4.0%	13	-1%	1	6.3
O=C(Nc1cc(Br)ccc1O)C1CC(c2ccccc2Cl)=NO1 (stereo not given)	3%	-13%	0.3%	2	-8%	2	-2.7
CCC(c1nnnn1CS(=O)(=O)c1ccc(C)cc1)N1CCN(c2nc3ccccc3s2)CC1 (stereo not given)	-5%	2%	0.0%	7	-5%	12	-0.9
Cc1[nH]n(-c2ccccc2)c(=O)c1-c1cccc(Cl)c1	6%	-2%	-2.8%	-2	-6%	?	1.0
Nc1cccnc1Sc1ccccc1	/	-5%[15.4 µM]	/	0	17%	/	/
Cc1cccc(Oc2nc(CN3CCOCC3)nc3sc4c(c23)CCCC4)c1	-20%	-3%[15.4 µM]	-0.7%	-17	-3%	-22	0.1
CCCC(=O)Nc1cc(C)c(NC(=O)C23CC4CC(CC(C4)C2)C3)cn1	8%	-5%	-5.4%	-1	-1%	-4	-4.3
O=[N+]([O-])c1cccnc1N1CCN(c2ccccc2F)CC1	1%	-2%[15.4 µM]	-6.0%	-24	-4%	-11	-0.6
O=C1OCCC1Sc1nnc(-c2ccc(O)cc2)o1 (stereo not given)	6%	-44%[inhibitor]	-6.7%	3	6%	-7	4.4
COc1cc(/C=C2/NC(=O)N(c3cccc(Cl)c3)C2=O)ccc1O	-6%	3%	/	-5	-1%	-26	6.0

Reformatted with two lines to a compound: 2 of the compounds above.
Order of results – Sfp inh	gsp ag	ClpP mod	CtBP-E1A blk	gsp antag	TRPV1 potentiator	Menin MLL FP FL
> CC1(C)Cc2c(cnn2-c2ccc(F)cc2)C(NC(=O)CCCN2CCCCC2=O)C1 (stereo not given)
→ 8%	-52%[inhibitor]	-1.3%	8	-6%	20	/
> Cc1nnc(SCC(=O)Nc2ccc(OC(F)F)c(Cl)c2)n(N)c1=O
→ /	-1%	0.8%	7	2%	/	/

Continued:
molecule	Sfp inh	gsp ag	ClpP mod	CtBP-E1A blk	gsp antag	TRPV1 potentiator	Menin MLL FP FL
COc1cccc(OCC(=O)NNC(=O)Cc2cccs2)c1	14%	14%	1.2%	2	-2%	4	-0.6
CC(=O)Nc1nc2cc(C(N)=O)ccc2s1	/	/	-4.7%	-2	4%	-6	/
O=c1c2ccccc2nc(/C=C/c2ccc(O)cc2)n1CCc1ccccc1	-7%	11%[15.4 µM]	-4.5%	0	-28%	-22	/
CCOC(=O)N1CCN(C(=O)CC(C(=O)N2CCc3ccccc32)n2ccnc2)CC1 (stereo not given)	9%	8%	-3.1%	-5	-27%	8	-3.4
Cc1ccc(-c2csc3ncnc(NCCN4CCOCC4)c23)cc1	3%	21%	-2.4%	-6	11%	9	?
Cc1c(-c2ccc(F)cc2)[n+](=O)c(-c2ccc(F)cc2)c(C)n1[O-]	3%	-27%	4.3%	9	0%	3	1.2
CCN(CC)CCN(C)C1CCC(c2ccccc2)CC1 (stereo not given)	-25%	-41%[inhibitor]	-3.3%	-3	20%	4	1.3
COc1ccccc1CN1CC(C(=O)NCCn2ccc(C)n2)CCC1=O (stereo not given)	10%	15%	1.4%	4	12%	-16	-3.3
COc1ccc(-c2csc(N(CCc3ccccc3)C(=O)COc3ccccc3)n2)cc1	3%	-21%	-3.2%	-6	7%	5	2.0
Cc1cccc(Cc2c(C)nc3nc(SCC(=O)O)nn3c2C)c1	-1%	?	-2.1%	7	2%	-4	0.4
Cc1ccccc1CNC(=O)CC1C(=O)NCCN1Cc1c(F)cccc1Cl (stereo not given)	?	28%	/	1	6%	19	2.1
c1cc2c(cc1C1CCCCC1)c1c3n2CCN=C3CCC1	79µM*	?	-3.8%	-1	16%	-20	9.2
Cc1cc(-c2ccc(C)c(S(=O)(=O)NCCc3ccco3)c2)on1	-5%	-75%[inhibitor]	1.2%	/	-17%	9	/
CC(C)CCNC(=O)c1cccc(Cl)c1	12%	8%	-4.1%	-1	-13%	-7	3.0
CC(CCc1ccc(O)cc1)N(C)CCc1ccccc1 (stereo not given)	?	-11%	-1.5%	0	5%	-21	-1.7
COc1cccc(C(=O)O/N=C(\N)c2ccccn2)c1OC	0%	-11%	0.7%	/	3%	3	0.4
CC(=O)Nc1ccc(S(=O)(=O)Nc2nc3ccccc3nc2Nc2ccc3ccccc3c2)cc1	5%	?	3.5µM*	-5	-42%	9	?
Cc1ccc(CNC(=O)C(=O)NCCCn2ccnc2)cc1	/	-31%	2.0%	7	12%	/	/
CC(C)(C)Cc1c(-c2ccc(Cl)cc2)nc2ccc(Cl)cn12	/	-30%	-12%	-12	/	/	/
CC(C)(C)OC(=O)NC(Cc1ccccc1)C(=O)NCCCC(=O)O (stereo not given)	20%	-10%[15.4 µM]	/	7	5%	12	0.9
COc1ccc(Cl)cc1CC=NNC(=O)c1cccc(C)c1O	/	5%	-11%	-19	0%	/	/
O=C(Nc1cccnc1)c1cccnc1	1%	-5%	-2.2%	1	8%	25	-4.2
Cc1ccc(S(=O)(=O)N(Cc2ccccc2Cl)C(=O)N2CCN(C)CC2)cc1	/	23%	5.0%	-23	10%	-8	/
O=C(NCCc1ccc(Cl)cc1)c1cccc(N2CCCC2=O)c1	4%	1%	-2.4%	-2	2%	18	/
O=C(NC1CCSC1=O)c1ccc(Oc2ccc(F)cc2)nc1 (stereo not given)	13%	3%	2.1%	10	10%	-8	1.3
COc1ccc(OC)c(N(CC(=O)NCc2ccncc2)S(C)(=O)=O)c1	17%	-84%[inhibitor]	-2.0%	6	3%	0	2.7
CCNc1nc(NCC)n2c(SC(C(=O)Nc3cc(C)ccc3C)c3ccccc3)nnc2n1 (stereo not given)	-19%	-6%[15.4 µM]	-1.4%	-22	?	-5	1.3
CC1(C)c2ccccc2N2CCC(=O)NC21/C=C/c1ccco1 (stereo not given)	40µM*	-44%[inhibitor]	0.1%	-1	17%	1	?
COCCNC(=O)CSc1cc(-c2ccccc2)c2ccc(OC)cc2n1	-19%	14%[15.4 µM]	1.2%	-8	2%	-17	0.1
COc1cccc(NC(=O)NCc2ccccn2)c1	10%	?	-1.9%	-1	8%	1	0.8
Cc1cc2nc(SCCOC(=O)Nc3cccc(Cl)c3)nc(C)c2cc1C	14%	15%[15.4 µM]	/	3	-10%	11	6.5
CC(=O)Nc1ccc(-c2nc3ccccc3o2)cc1	30%[activator]	16%	4.5%	4	-13%	-4	1.3
COc1cccc(/C=N/Nc2ccc([N+](=O)[O-])cn2)c1O	10%	?	/	171	5%	0	-0.7
O=C(Cn1ncc2c3ccccc3n(Cc3ccccc3)c2c1=O)NCCN1CCOCC1	15%	-2%	4.0%	0	3%	8	/
NS(=O)(=O)c1ccc(NC(=O)COc2ccc(C(=O)c3ccc(F)cc3)cc2)cc1	15%	3%	-1.6%	5	-20%	5	7.7
Nc1nnc(SCC(=O)Nc2cccnc2Cl)s1	/	10%[15.4 µM]	-27%	-16	9%	5	/
COc1ccc(NC(=O)CC2C(=O)N(c3ccc(OC)cc3)C(=O)N2CCN2CCN(C)CC2)cc1 (stereo not given)	16%	-2%	0.6%	10	-1%	17	2.4
Cc1ccc(N2C(=O)C3CCC(c4ccccc4)CC3C2=O)cc1 (stereo not given)	39%[activator]	-2%[15.4 µM]	-2.5%	-2	-11%	-5	1.1
COc1ccc(NC(=O)Cn2nnc(C(=O)NCc3ccccc3OC)c2N)cc1Cl	10%	-8%	0.2%	2	10%	-21	3.1

Among those listed so far, 2 have a COOH group:
molecule	Sfp inh	gsp ag	ClpP mod	CtBP-E1A blk	gsp antag	TRPV1 potentiator	Menin MLL FP FL
Cc1cccc(Cc2c(C)nc3nc(SCC(=O)O)nn3c2C)c1	-1%	?	-2.1%	7	2%	-4	0.4
CC(C)(C)OC(=O)NC(Cc1ccccc1)C(=O)NCCCC(=O)O (stereo not given)	20%	-10%[15.4 µM]	/	7	5%	12	0.9

Screening data from PubChem BioAssay.
